VACV mCherry inh = inhibitors of vaccinia virus infection (mCherry reporter signal) | Vaccinia virus mCherry reporter infection, fluorescence; about a quarter of the inactives have no number | AID 720579 | Potency, µM (series often up to 36.5 µM), for the others: at the top dose activity change, negative = inhibition, hits mostly inhibitors | 310,000 tested, 0.63% active; active = well fitted inhibition curve with a large enough effect; inconclusive = small, poorly fitted or top-dose-only effect; inactive = no such curve, though single readings can be large or run the other way; tested in A549 cells; note: nearly all actives have a fitted effect of over 35% in size; inactives centre near -10
VACV Venus inh = inhibitors of vaccinia virus (Venus reporter); Vaccinia virus Venus reporter expression, fluorescence; Potency, µM (series often up to 36.5 µM), for the others: at the top dose activity change, negative = inhibition, most hits filed as inhibitors; 330,000 tested, 0.46% active; active means well fitted inhibition curve with a large enough effect; inconclusive means small, poorly fitted or top-dose-only effect; inactive means no such curve, though single readings can be large or run the other way; tested in A549 cells; note: nearly all actives have a fitted effect of over 30% in size; inactives centre near -10
Active calls of the source: *; i = inactive; ? = inconclusive; / = not tested or not shown; & = joins results of further samples; [ ] = dose if it differs, or a comment. % is set by controls: 0 for no effect and ±100 for the full control effect; potency is the fitted concentration of half-maximal effect.

1	COc1ccccc1C(=O)N1CCC(c2noc(-c3ccc(S(=O)(=O)N4CCCC4)cc3)n2)CC1
2	O=C(Cc1ccc(F)cc1)Oc1ccc(C(=S)N2CCCC2)cc1
3	Cc1ccc(NC(=O)c2ccccc2)cc1OC(=O)c1ccccc1
4	Oc1[nH]c(=S)sc1/C=C1\C(c2ccccc2)=Nc2ccccc21
5	COc1ccc(-n2c(Cc3cccn3C)nnc2SCC(=O)NCc2ccc(F)cc2)cc1
6	CCSc1nc2sc3c(c2c(=O)n1C1CCCCC1)CCN(C)C3
7	CCOC(=O)c1sc2cc([N+](=O)[O-])cc(SCCO)c2c1N
8	CC(C)N1CCN(Cc2cccs2)CC1CCO (stereo not drawn)
9	CC1CC(=O)Nc2ccccc2N1 (stereo not drawn)
10	CN1CCN(C(=O)c2cccc3c(-c4ccc(F)c(F)c4)coc23)CC1

entry no. | 1 | 2 | 3 | 4 | 5 | 6 | 7 | 8 | 9 | 10
VACV mCherry inh | -30% | -13% | -22% | ? | -7% | -17% | ? | i | -18% | 0%
VACV Venus inh | -25% | -9% | -13% | 6% | -4% | -6% | -8% | -7% | -11% | 1%

11	Cc1ccc2nc3c(c(N)c2c1)CCN3c1ccccc1
12	COc1ccc(C(CNC(=O)c2nn(-c3ccccc3)c(=O)c3ccccc23)N2CCOCC2)cc1 (stereo not drawn)
13	COc1ccc(CN2CCOc3ccc(CN4CCC(O)(c5cccnc5)CC4)cc3C2)c(C)c1C
14	O=C(OCc1nc2ccccc2s1)C1CCN(S(=O)(=O)c2cccs2)CC1
15	CCOP(=O)(O)c1ccccc1OCCCCCOc1ccccc1P(=O)(O)OCC
16	COc1ccc(S(=O)(=O)NCc2cccn2Cc2cccc(C)c2)cc1
17	Cc1ccc(NC(=O)Nc2cc3c(cc2N2CCCCC2)n(C)c(=O)n3C)cc1Cl
18	O=C(COC(=O)c1cc(Cl)nc2ccccc12)c1ccc(Cl)cc1
19	Cc1cc(Br)c(Oc2cc(NN3CCCCC3)c([N+](=O)[O-])cc2[N+](=O)[O-])c(Br)c1
20	CN(C)CCC#CC(O)(c1ccccc1)c1ccccc1

entry no. | 11 | 12 | 13 | 14 | 15 | 16 | 17 | 18 | 19 | 20
VACV mCherry inh | ? | -11% | -26% | -13% | i | -11% | ? | -5% | -23% | -9%
VACV Venus inh | -28% | -7% | -19% | -7% | 1% | -8% | ? | -7% | -20% | -1%

21	COc1ccc(OC)c(CCNCc2c(C(=O)O)c(C)n(Cc3ccc(F)cc3Cl)c2C)c1
22	CCOc1ccc(CCNC(=O)CN2C(=O)c3cccnc3Oc3ccc(Cl)cc32)cc1
23	O=C(Nc1cccc(Cl)c1)C1CC1c1ccccc1 (stereo not drawn)
24	Cc1ccc(-n2c(-c3nn(C)cc3Cl)n[nH]c2=S)cc1
25	O=C(/C(=N\O)n1cncn1)c1ccc(Cl)cc1Cl
26	Cc1ccc(NC(=O)CNCc2ccccc2)cc1Br
27	Cc1ccc(C(=O)N/C(=C\c2ccc(Cl)cc2)C(=O)NCCN2CCOCC2)cc1
28	C/C(=N\NC(=O)C(N)=O)c1ccc2c(c1)OCCO2
29	CCCCN1CNC(=S)N(CCc2ccccc2)C1
30	CN1CCN(c2ncc3c(n2)CCN(Cc2ccc(Br)s2)C3)CC1

entry no. | 21 | 22 | 23 | 24 | 25 | 26 | 27 | 28 | 29 | 30
VACV mCherry inh | -10% | -23%&-14% | -1% | -13% | -12% | 11% | -6% | -7% | -7% | -7%
VACV Venus inh | -11% | -28%&-6% | -2% | -7% | -3% | -5% | -5% | -3% | -18% | -11%

31	Cc1ccc([C@@H]2CC(=O)[C@@H]3CN(S(=O)(=O)c4ccc(C)cc4)[C@H](c4ccccc4)C[C@@H]3N2S(=O)(=O)c2ccc(C)cc2)cc1
32	CN(c1ccccc1)S(=O)(=O)c1ccc(C(=O)Nc2nccs2)cc1
33	CC1Oc2ccccc2N(CC(=O)NCC2CCCO2)C1=O (stereo not drawn)
34	COc1ccc(CCC(=O)OCC(=O)NC2CCCC2)cc1OC
35	CCCn1c(SCC(=O)NCc2ccc(F)cc2)n[nH]c1=O
36	COc1ccc(C)cc1C(=O)CCC(=O)N1CCN(c2ccccc2F)CC1
37	O=C(COc1coc(CN2CCc3ccccc3C2)cc1=O)Nc1ccccc1F
38	COc1ccc(C(=O)CC2SC(N)=NC2=O)cc1 (stereo not drawn)
39	O=C(CSc1nc2c(c(=O)n1-c1ccc(F)cc1)SCC2)Nc1ccc2c(c1)OCO2
40	CCOC(=O)CSc1nc2c(cnn2-c2ccc(F)cc2)c(=O)[nH]1

entry no. | 31 | 32 | 33 | 34 | 35 | 36 | 37 | 38 | 39 | 40
VACV mCherry inh | 25% | -11% | -11% | i | -4% | -14% | -12% | i | 23% | -2%
VACV Venus inh | -10% | -21% | -3% | -6% | 0% | -14% | -11% | -11% | 0% | -5%

41	Cc1ccc(-c2csc(NC(=O)c3cccc(S(=O)(=O)N4CCN(C)CC4)c3)n2)cc1
42	CC1(C(=O)NS(=O)(=O)c2ccccc2Cl)CCN1C(=O)C1CC1 (stereo not drawn)
43	CC(C)c1ccc(NC(=O)c2ccc(-c3ccnn3C)c3ccoc23)cc1
44	COC(=O)Cc1ccc(Oc2ncc(C(F)(F)F)cc2Cl)cc1
45	O=C(Cc1ccc(Cl)cc1)OCc1nnc(-c2ccccc2)o1
46	Cc1cccn2c(=O)c3cc(S(=O)(=O)c4ccc(Br)cc4)c(=N)n(C4CCCCC4)c3nc12
47	CCN(CC(=O)Nc1c(F)cccc1F)C(=O)CSCC(=O)Nc1ccc(OC)cc1
48	COc1ccc(CNC(=O)CSc2nn3c(=O)c(C(C)(C)C)nnc3s2)cc1OC
49	CCCCC/C=C\C/C=C\C/C=C\CCCCC(=O)O
50	COC(=O)[C@]1(C)N[C@H](CN(C)S(=O)(=O)c2ccc(C(C)(C)C)cc2)[C@@H]2C(=O)N(C)C(=O)[C@@H]21

entry no. | 41 | 42 | 43 | 44 | 45 | 46 | 47 | 48 | 49 | 50
VACV mCherry inh | -11% | 16% | ? | i | i | i | -21% | -12% | -13% | i
VACV Venus inh | -5% | 5% | ? | -5% | -17% | -9% | -9% | -16% | -5% | -2%

51	CCCC(=O)Nc1ccc(N2CCN(CC)CC2)c(Cl)c1
52	Cc1ccc(CS(=O)Cc2ccc(C(=O)NC3CCCCC3)o2)cc1 (stereo not drawn)
53	COc1ccc(-n2cnnc2SCC(=O)c2cc(C)n(Cc3cccs3)c2C)cc1
54	CCCCN(CC)S(=O)(=O)N1CCC(C(=O)NCc2ccc(F)cc2)CC1
55	CCNC(=O)Nn1c(-c2ccccc2)nc2ccccc2c1=O
56	CCN(CC)C(=O)[C@H]1C[C@H](CC(=O)NCCCN(C)C)C(=O)N2CCc3c([nH]c4cc(-c5ccco5)ccc34)[C@]12C
57	CCOC(=O)CCC(=O)N1CCOCCOCCN(C(=O)CCC(=O)OCC)CCOCC1
58	Cc1cccnc1NC(=O)CSc1nnc(CNC(=O)c2cccc([N+](=O)[O-])c2)n1C
59	O=S1(=O)NC2c3ccccc3CC2O1 (stereo not drawn)
60	CCOC(=O)C1(C)CCCCN1C(=O)c1cccs1 (stereo not drawn)

entry no. | 51 | 52 | 53 | 54 | 55 | 56 | 57 | 58 | 59 | 60
VACV mCherry inh | -16% | -12% | i | -9% | / | ? | -16% | i | -11% | i
VACV Venus inh | -10% | -14% | -10% | -23% | -7% | -15% | -5% | -6% | -18% | 0%

61	Cc1c(C(=O)OC(C)C)sc(N)c1C(=O)OC(C)C
62	COc1ccc(CN2CCn3nc(C(=O)NC4CC4)cc3C2=O)cc1
63	CCOc1ccccc1CNC(=O)c1cnc2sc(N3CCCC3)nn2c1=O
64	Cc1c(Cl)cccc1N1C(=O)CC(Sc2ccccc2N)C1=O (stereo not drawn)
65	O=C(NCCc1nc2ccccc2n1CCOc1ccccc1)C1CCCCC1
66	O=C(O)Cn1c(SCCOc2ccccc2)nc2ccccc21
67	CC1(C)CC(=O)C=C(c2ccc(-c3ccc4[nH]ccc4c3)cc2)C1=O
68	CC1C/C(=N\NC(N)=S)c2cc(Cl)ccc2S1 (stereo not drawn)
69	O=c1c2cccnc2[nH]c(=S)n1Cc1ccccc1
70	CCc1nc2ccc(C(=O)Nc3ccc(NC(C)=O)cc3)cn2c1N(C)C(=O)Cc1ccccc1

entry no. | 61 | 62 | 63 | 64 | 65 | 66 | 67 | 68 | 69 | 70
VACV mCherry inh | ? | i | -18% | -1% | -11% | -12% | -19% | ? | -10% | i
VACV Venus inh | ? | -10% | -16% | -16% | -14% | -6% | -16% | ? | -3% | -29%

71	COC(=O)c1cc(NC(=O)c2cc(-c3ccc(C(F)(F)F)cc3)oc2C(F)(F)F)ccc1N1CCOCC1
72	CCOC(=O)c1ccc(-c2ccc(/C=C(\C#N)C(=O)NCC3CCCO3)o2)cc1 (stereo not drawn)
73	CC/C(=N\NC(=O)c1c(C)nc2ccccn12)c1ccccc1
74	CCOC(=O)c1nc(NNC(=O)c2ccc([N+](=O)[O-])cc2)sc1C
75	Cc1ccc(CNC(=O)[C@H]2C[C@@H]2[C@H](NP(=O)(c2ccccc2)c2ccccc2)c2ccccc2)o1
76	c1ccc(NCc2nc3ccccc3n2CCOc2ccccc2)cc1
77	Cc1ccc(CN2C(=O)CCC2C(=O)NCc2ccc(F)cc2)cc1 (stereo not drawn)
78	C=CCOC(=O)c1ccc(N2CCN(c3ccccc3)CC2)nc1
79	CCSc1nc2ccccc2n1S(=O)(=O)c1ccccc1
80	COc1cccc(N(C(=O)CNC(=O)c2ccco2)C(C(=O)NC2CCCC2)c2ccco2)c1 (stereo not drawn)

entry no. | 71 | 72 | 73 | 74 | 75 | 76 | 77 | 78 | 79 | 80
VACV mCherry inh | -17% | -4% | -5% | ? | -27% | 0% | -11%[1.46 µM] | 1% | -9% | 6%
VACV Venus inh | -14% | 118%[activator] | -14% | ? | -11% | -21% | -6% | -1% | 0% | 0%

81	COc1ccc(OCCN(C)C(=O)c2cccc(S(=O)(=O)N(C)c3ccccc3)c2)cc1
82	CSc1nc2nc(-c3ccc(F)cc3)c(CCN3CCN(C)CC3)cn2n1
83	COCCN(C(=O)COC(=O)c1ccc(Cl)nc1)c1c(N)n(Cc2ccccc2)c(=O)[nH]c1=O
84	O=C(O)Cc1ccc(OCc2ccc(Cl)nc2)cc1
85	COc1cc(C2NC(=S)NC(C)=C2C(=O)Nc2ccc(C)cc2)ccc1O (stereo not drawn)
86	COc1cc(C(=O)NCc2nc(-c3ccc(Cl)cc3)no2)cc(OC)c1OC
87	O=C(C[C@H]1C[C@H](C(=O)N2CCOCC2)[C@@]2(CCC3CCCC3)c3[nH]c4cc(-c5ccco5)ccc4c3CCN2C1=O)NCCC1=CCCCC1
88	O=C(c1c(F)cccc1F)N(Cc1ccccc1)Cc1ccccc1
89	COc1ccccc1NC(=S)NC1CCC(CC2CCC(NC(=S)Nc3ccccc3OC)CC2)CC1 (stereo not drawn)
90	CN(C)S(=O)(=O)c1ccc(C(=O)NCc2nnc(SCC(=O)NCc3ccco3)o2)cc1

entry no. | 81 | 82 | 83 | 84 | 85 | 86 | 87 | 88 | 89 | 90
VACV mCherry inh | -13% | i | i | i | -15% | -13% | ? | 0% | -2% | -17%
VACV Venus inh | -4% | -9% | 7% | -8% | -4% | -10% | ? | -7% | -14% | -2%

Arranged by molecular weight (highest first): some entries from above
87	O=C(C[C@H]1C[C@H](C(=O)N2CCOCC2)[C@@]2(CCC3CCCC3)c3[nH]c4cc(-c5ccco5)ccc4c3CCN2C1=O)NCCC1=CCCCC1
19	Cc1cc(Br)c(Oc2cc(NN3CCCCC3)c([N+](=O)[O-])cc2[N+](=O)[O-])c(Br)c1
46	Cc1cccn2c(=O)c3cc(S(=O)(=O)c4ccc(Br)cc4)c(=N)n(C4CCCCC4)c3nc12
1	COc1ccccc1C(=O)N1CCC(c2noc(-c3ccc(S(=O)(=O)N4CCCC4)cc3)n2)CC1
83	COCCN(C(=O)COC(=O)c1ccc(Cl)nc1)c1c(N)n(Cc2ccccc2)c(=O)[nH]c1=O
57	CCOC(=O)CCC(=O)N1CCOCCOCCN(C(=O)CCC(=O)OCC)CCOCC1
70	CCc1nc2ccc(C(=O)Nc3ccc(NC(C)=O)cc3)cn2c1N(C)C(=O)Cc1ccccc1
5	COc1ccc(-n2c(Cc3cccn3C)nnc2SCC(=O)NCc2ccc(F)cc2)cc1
39	O=C(CSc1nc2c(c(=O)n1-c1ccc(F)cc1)SCC2)Nc1ccc2c(c1)OCO2
64	Cc1c(Cl)cccc1N1C(=O)CC(Sc2ccccc2N)C1=O (stereo not drawn)
2	O=C(Cc1ccc(F)cc1)Oc1ccc(C(=S)N2CCCC2)cc1
45	O=C(Cc1ccc(Cl)cc1)OCc1nnc(-c2ccccc2)o1

entry no. | 87 | 19 | 46 | 1 | 83 | 57 | 70 | 5 | 39 | 64 | 2 | 45
VACV mCherry inh | ? | -23% | i | -30% | i | -16% | i | -7% | 23% | -1% | -13% | i
VACV Venus inh | ? | -20% | -9% | -25% | 7% | -5% | -29% | -4% | 0% | -16% | -9% | -17%

24	Cc1ccc(-n2c(-c3nn(C)cc3Cl)n[nH]c2=S)cc1

entry no. | 24
VACV mCherry inh | -13%
VACV Venus inh | -7%

Screening results from PubChem BioAssay.

Random draw from the library. Share with any hit: about 0.88%.
